Screening results deposited in PubChem BioAssay by National Center for Advancing Translational Sciences (NCATS).
StopGo FLuc = lowers the firefly signal of an FMDV 2A StopGo reporter; Potency, µM (doses to about 57.5 µM), for inactives: top-dose signal change, negative = less light; 120,000 compounds, 0.23% hits; HEK cells with a luciferase reporter of 2A StopGo recoding; active = well fitted falling curve with a large enough effect; inconclusive = small, poorly fitted or top-dose-only effect; inactive = no such curve, though single readings can be large or run the other way; further: nearly all actives have a fitted effect of over 60% in size; overnight with compound
2A Renilla = FMDV 2A StopGo reporter, Renilla signal; HEK cells with a luciferase reporter of 2A StopGo recoding; Potency, µM (top dose mostly 57.5 µM), without a hit: top-dose signal change, negative = less light; 120,000 compounds, 0.32% hits; active means well fitted falling curve with a large enough effect; inconclusive means small, poorly fitted or top-dose-only effect; inactive means no such curve, though single readings can be large or run the other way; further: nearly all actives have a fitted effect of over 55% in size; overnight with compound
* = called active by the depositor; ? = inconclusive; & = joins results of further samples; [ ] = remark or other dose. On the % scale 0 is the no-effect control and ±100 the full control effect; potency means the concentration at half of the fitted maximal effect.

1	CCc1ccc(NC(=O)CC2C(=O)NCCN2C(=O)c2ccccc2OC)cc1 (stereo unspecified)
2	CC(NC(=O)C1CCN(c2ccc(C#N)cn2)CC1)c1ccccc1F (stereo unspecified)
3	CCCCCCCCCCCCCCCC[N+](C)(C)CCN(Cc1ccc(OC)cc1)c1ncccn1
4	COc1ccc(OC)c(NC(=O)Cn2ccc3ccccc32)c1
5	Cc1ccc(CNc2nc3ccccc3n3c(C)nnc23)cc1
6	Cc1c(Cl)cccc1NC(=O)N1CCC(CN2CCCC2)CC1
7	O=C(O)CCC(NC(=O)C(c1ccccc1)c1ccccc1)C(=O)O (stereo unspecified)
8	COC(=O)c1c(C)oc2c1cc(NS(=O)(=O)c1ccc(OC)cc1)c1ccccc12
assay / compound,1,2,3,4,5,6,7,8
StopGo FLuc,0%,-5%,-15%,-2%,-8%,-13%,-1%,19%
2A Renilla,-5%,-10%,-6%,39%[activator],-5%,-6%,2%,127%[activator]

9	Cn1cc(C(=O)NC2CCN(Cc3noc(C(C)(C)C)n3)CC2)cn1
10	O=C(CC1C=CCC1)NCCN1CCCCCC1 (stereo unspecified)
11	COc1cc(C2CC(=O)Nc3c2c(=O)[nH]c2ncnn32)ccc1O (stereo unspecified)
12	CN(C)c1ccc(C(N)=S)cc1
13	COc1ccc2nc(N(Cc3cccnc3)C(=O)CCc3ccccc3)sc2c1
14	Cc1nc2ccc(C(=O)OCC(=O)NC(=O)NC(C)C)cc2nc1C
15	COc1ccccc1NC(=O)Cn1cnc2c(nnn2Cc2ccc(F)cc2)c1=O
16	CC(Oc1ccc(Oc2ccccc2)cc1)C(N)=O (stereo unspecified)
assay / compound,9,10,11,12,13,14,15,16
StopGo FLuc,-2%,9%,-23%,0%,-9%,-7%,5%,0%
2A Renilla,-10%,-11%,-3%,1%,50%[activator],-14%,9%,3%

Quoted at random: 7 compounds from above.
16	CC(Oc1ccc(Oc2ccccc2)cc1)C(N)=O (stereo unspecified)
1	CCc1ccc(NC(=O)CC2C(=O)NCCN2C(=O)c2ccccc2OC)cc1 (stereo unspecified)
2	CC(NC(=O)C1CCN(c2ccc(C#N)cn2)CC1)c1ccccc1F (stereo unspecified)
12	CN(C)c1ccc(C(N)=S)cc1
10	O=C(CC1C=CCC1)NCCN1CCCCCC1 (stereo unspecified)
6	Cc1c(Cl)cccc1NC(=O)N1CCC(CN2CCCC2)CC1
5	Cc1ccc(CNc2nc3ccccc3n3c(C)nnc23)cc1
assay / compound,16,1,2,12,10,6,5
StopGo FLuc,0%,0%,-5%,0%,9%,-13%,-8%
2A Renilla,3%,-5%,-10%,1%,-11%,-6%,-5%

(cont.)
17	CCOc1nc2ccccc2nc1N1CCC(C(=O)Nc2ccc(Cl)cc2C)CC1
18	CNC(=O)COC(=O)c1cc(Cl)ccc1Cl
19	Cc1ccc(NC(=O)c2nc(S(=O)(=O)Cc3ccc(F)cc3)ncc2Cl)cc1C
20	COc1ccc(NC(=O)C(C)Sc2ncnc3c2sc2nc4c(cc23)COC(C)(C)C4)cc1 (stereo unspecified)
21	Cc1ccc(CNC(=O)Cn2c(=O)c3c(ncn3C)n(C)c2=O)cc1F
22	O=Cc1ccc(-c2ccc(Br)cc2F)o1
23	CCOc1ccc(CN(C)Cc2cc(C(C)(C)C)c(O)c(C(C)(C)C)c2)cc1OC
24	Cc1ccc(C)c(N2CCN(C(=O)CCS(=O)(=O)c3ccc4c(c3)CCN4C(=O)C3CC3)CC2)c1
assay / compound,17,18,19,20,21,22,23,24
StopGo FLuc,-6%,20%,?,9%,-8%,0%,-12%,-8%
2A Renilla,-4%,5%,?,-11%,-11%,-14%,-1%,-4%

Looked up above.
StopGo FLuc with `CNC(=O)COC(=O)c1cc(Cl)ccc1Cl` → 20%
StopGo FLuc with `Cc1ccc(C)c(N2CCN(C(=O)CCS(=O)(=O)c3ccc4c(c3)CCN4C(=O)C3CC3)CC2)c1` → -8%
StopGo FLuc with `COc1ccc(NC(=O)C(C)Sc2ncnc3c2sc2nc4c(cc23)COC(C)(C)C4)cc1` (stereo unspecified) → 9%

(listing goes on)
25	Cc1ccc(OCC(=O)OCC(=O)c2ccc3c(c2)OCCO3)cc1
26	Cc1cc(C(=O)Cn2c(Cl)nc3c2c(=O)n(C)c(=O)n3C)c(C)n1Cc1ccc(F)cc1
27	Cn1c(=O)c2c(ncn2CCC(=O)N(Cc2ccc(F)cc2)C2CC2)n(C)c1=O
28	Cc1ccc(NC(=O)Cn2c(-c3nonc3N)nc3ccccc32)c(Br)c1
29	Cc1cc(C)c2oc(-c3ccc(Cl)c(NC(=O)c4cccs4)c3)nc2c1
30	CCN(CC)C(=O)Cn1c(=O)n(-c2ccc(C)c(C)c2)c(=O)c2c(C)c(C(=O)N(CC)CC)sc21
31	O=C(Nc1nnc(-c2ccncc2)s1)C(=O)c1c[nH]c2ccccc12
32	COc1ccc2[nH]cc(CCn3ccc4c(cnc5ncnn54)c3=O)c2c1
assay / compound,25,26,27,28,29,30,31,32
StopGo FLuc,12%,0%,3%,21%&-10%,59%[activator],-11%,8%,3%
2A Renilla,4%,12%,-12%,4%&-7%,-5%,10%,2%,-2%

33	N#Cc1c(SCC(=O)NCCc2ccccc2)nc(N2CCOCC2)c2c1CCCC2
34	COc1ccc2sc(N(Cc3cccnc3)C(=O)c3ccco3)nc2c1
35	O=C(O)C1CCCCN1C(=O)c1ccc(Cl)c(S(=O)(=O)N2CCCCC2)c1 (stereo unspecified)
36	CCCN1CCN(c2nnc(-n3cccc3CNCc3ccc(OC)cc3OC)s2)CC1
37	Cn1cc(C(=O)CN2C(=O)COc3ccc(Cl)cc32)c2ccccc21
38	CCOc1cc(C)c(C(C)C)cc1S(=O)(=O)Nc1cccnc1
39	COc1ccc(N2C(=O)CSC23C(=O)N(CC(N)=O)c2ccccc23)cc1 (stereo unspecified)
40	CCc1cc(=O)oc2c(C)c(OC(C)C(=O)NCc3ccccn3)ccc12 (stereo unspecified)
assay / compound,33,34,35,36,37,38,39,40
StopGo FLuc,42%[activator],?,2%,68%[activator],-1%,0%,1%,11%
2A Renilla,56%[activator],?,0%,-9%,0%,53%[activator],-2%,-4%

41	C[N+]1(CC(=O)OCCCC2CCCCC2)CCOCC1
42	CC(=O)Nc1ccc(NC(=O)COc2ccc3c(=O)c(-c4ccccc4)c(C)oc3c2)cc1
43	CCOc1ccc(CNCC2CCCO2)cc1OCC (stereo unspecified)
44	CC(=O)OC1CCN(CCc2ccccc2)C(C)C1C (stereo unspecified)
45	CCOC(=O)c1sc(Nc2cccc(C)c2)nc1C
46	NCCC(O)(P(=O)(O)O)P(=O)(O)O
47	COc1ccc(CN(C(=O)c2ccc(Cl)cc2F)C2CC2)c(OC)c1
48	Cc1cccc(NC(=S)N(CCC#N)c2ccc(F)cc2)c1
assay / compound,41,42,43,44,45,46,47,48
StopGo FLuc,10%,7%,0%,-10%,280%[activator],-16%[11.5 µM],36%[activator],20%
2A Renilla,19%,1%,-5%,1%,0%,-10%,1%,8%[1.06 µM]

49	COc1ccc(N(Cc2cccs2)C(=O)Cn2nnc(-c3ccccc3C)n2)cc1
50	CCOC(=O)CSC1=Nc2ccccc2C2=NC(CCC(=O)NCc3ccccc3)C(=O)N12 (stereo unspecified)
51	COc1ccc(NC(=O)C2CCN(c3ccc(Sc4ccc(C)cc4)nn3)CC2)cc1
52	NS(=O)(=O)c1ccc(NC(=O)CCc2nc3ccccc3c(=O)[nH]2)cc1
53	CC(=O)Nc1cccc(NC(=O)c2cc3cc(Cl)ccc3nc2C)c1
54	COc1ccc(-c2cc3n(n2)C(C(=O)Nc2ccccc2F)CC(=O)N3)cc1OC (stereo unspecified)
55	Cc1ccc(Nc2nc(N)nc(COc3ccccc3C(N)=O)n2)cc1
56	COc1cccc(CNC(=O)Cn2nc(N3CCN(c4ccccc4OC)CC3)ccc2=O)c1
assay / compound,49,50,51,52,53,54,55,56
StopGo FLuc,-5%,-13%,-6%,-4%,113%[activator],-14%,63%[activator],-4%
2A Renilla,9%,-9%,-9%,-4%,4%,-13%,0%,5%

57	O=C(CSc1ncnc2ccccc12)Nc1ccc(F)c(F)c1F
58	Cc1cccc(Cn2c(Br)nc3c2c(=O)n(C)c(=O)n3C)c1
59	CC(NC(=O)c1ccc(N2Cc3ccccc3Oc3ncccc32)s1)c1ccccc1 (stereo unspecified)
60	CCN(C(=O)CCNC(=O)Cn1cnc2ccccc2c1=O)c1cc(OC)ccc1OC
61	CCC(CO)NS(=O)(=O)c1cc(-c2nnc3c4ccccc4c(C)nn23)ccc1OC (stereo unspecified)
62	Cc1c(-c2ccccc2)oc2c(C(=O)OCC(=O)NC(=O)NC(C)C)cccc2c1=O
63	CCCC(=O)C1=C(c2ccc(C)cc2)N(C(=O)CCC)n2cnnc2S1
64	Cc1nn2c(SCC(=O)NCc3ccccc3Cl)nc3ccccc3c2nc1=O
assay / compound,57,58,59,60,61,62,63,64
StopGo FLuc,7%,?,-12%,-16%,36%[activator],3%,?,12%
2A Renilla,-15%,?,1%,-13%,248%[activator],15%,?,-3%

From no. 59 as far as 64, as listed above:
59	CC(NC(=O)c1ccc(N2Cc3ccccc3Oc3ncccc32)s1)c1ccccc1 (stereo unspecified)
60	CCN(C(=O)CCNC(=O)Cn1cnc2ccccc2c1=O)c1cc(OC)ccc1OC
61	CCC(CO)NS(=O)(=O)c1cc(-c2nnc3c4ccccc4c(C)nn23)ccc1OC (stereo unspecified)
62	Cc1c(-c2ccccc2)oc2c(C(=O)OCC(=O)NC(=O)NC(C)C)cccc2c1=O
63	CCCC(=O)C1=C(c2ccc(C)cc2)N(C(=O)CCC)n2cnnc2S1
64	Cc1nn2c(SCC(=O)NCc3ccccc3Cl)nc3ccccc3c2nc1=O
assay / compound,59,60,61,62,63,64
StopGo FLuc,-12%,-16%,36%[activator],3%,?,12%
2A Renilla,1%,-13%,248%[activator],15%,?,-3%

The list goes on:
65	CCOC(=O)C(=NNc1ccc(C)cc1)C(=O)OCC
66	Cc1cc(C)nc(NNc2ccc([N+](=O)[O-])cc2)n1
67	Cc1ccc2nc(/C(C#N)=C\c3ccccc3)[nH]c2c1
68	Cc1ccc(Nc2nc(NCc3ccco3)nc3c2cnn3-c2ccccc2)cc1C
69	NC(=O)c1c(NC(=O)CSc2ccccn2)sc2c1CCCC2
70	Cc1cccc(-n2nnnc2SCCCn2c(=O)c3c(ncn3C)n(C)c2=O)c1
71	CCNc1ncnc2c1nnn2C
72	CCC(=O)Nc1nc2c(C)cc(NS(=O)(=O)c3cc(F)ccc3F)cc2s1
assay / compound,65,66,67,68,69,70,71,72
StopGo FLuc,107%[activator],0%,213%[activator],82%[activator],98%[activator],-3%,-9%,10%
2A Renilla,31%[activator],8%,144%[activator],2%,30%[activator],-6%,-4%,363%[activator]

73	CC(O)CNc1ccc(-c2nn(C)c(=O)c3ccccc23)cc1[N+](=O)[O-] (stereo unspecified)
74	CC(C)CCNc1nc2ccccc2nc1C(C#N)S(=O)(=O)c1ccc(F)cc1 (stereo unspecified)
75	Cc1ccc(CNC(=O)c2c[nH]c3ccc(S(=O)(=O)Nc4ccc(C(C)C)cc4)cc3c2=O)cc1
76	Cn1cnc(S(=O)(=O)N2CCC(C(=O)Nc3ccc(F)cc3F)CC2)c1
77	Cn1c(=O)oc2cc(S(=O)(=O)CCC(=O)N3CCN(c4ccccc4F)CC3)ccc21
78	COc1ccccc1-c1noc(CSc2nnc(Cc3ccccc3)n2-c2ccc(C)c(C)c2)n1
79	Cc1ccc(-n2nnc(C(=O)NC(C)c3ccccc3)c2C)cc1Cl (stereo unspecified)
80	Cc1ccc(C(NC(=O)COc2ccccc2)c2cccs2)cc1 (stereo unspecified)
assay / compound,73,74,75,76,77,78,79,80
StopGo FLuc,85%[activator],?,-22%,-7%,-14%,-22%,0%,79%[activator]
2A Renilla,67%[activator],-23%,124%[activator],0%,8%,24%,2%,48%[activator]

81	COC(=O)C1=C(CN2CCCCC2)NC(=O)NC1c1ccc(C)cc1 (stereo unspecified)
82	COCCN1CN=C(Nc2nc(C)c3ccccc3n2)NC1
83	CCn1c(N2CCN(C)CC2)nc2c1c(=O)[nH]c(=O)n2C
84	COc1ccc(CCNCc2sccc2C)cc1OC
85	COc1ccccc1N1CCN(c2c(CN3CCCC3)c(=O)oc3ccccc23)CC1
86	CCc1ccc(C2C(C(C)=O)C(=O)CC(C)(O)C2C(C)=O)cc1 (stereo unspecified)
87	Cc1ccccc1CN1CCCN(Cc2nnsc2Cl)CC1
88	O=C(c1cc(Cl)c2c(c1)OCCO2)N1CCSc2ccccc21
89	COC(=O)c1ccc(NC(=O)CSc2nncc3ccccc23)cc1
90	O=C(Nc1ccc(C23CC4CC(CC(C4)C2)C3)cc1)c1ccc(Cl)cc1Cl
assay / compound,81,82,83,84,85,86,87,88,89,90
StopGo FLuc,16%,16%,-5%,-1%,-17%,-1%,20%,0%,19%,23%
2A Renilla,6%,6%,-10%,9%,-11%,2%,7%,23%,3%,9%

This is a subset; rates above refer to the full screens.
